Screens: PubChem BioAssay, several laboratories
MT1-MMP act inh: MT1-MMP (human) activation inhibition | AID 651647 | 0.061% of 360,000 active | P50281 | GFP/RFP ratio change, % at 20 µM | HT1080 RFP-PRO-GFP cells, GFP/RFP ratio fluorescence, overnight; percent of plate control window, DMSO zero;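 active = GFP/RFP ratio change of at least 30% with cell ATP level not reduced by more than half and red fluorescence within 50% of control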; also: strong numbers were not always called active
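Compound: 20 µM single dose, 1% DMSO / System: HT1080 RFP-PRO-GFP cells / Controls: DMSO and RFP-L50D-GFP cell wells / Read-out basis: GFP/RFP fluorescence ratio / Schedule: overnight compound exposure at 37 °C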
UUG fidelity: yeast start codon fidelity modulation | S. cerevisiae UUG-firefly luciferase reporter, luminescence/redox ratio | AID 602363 | activity score, % at 18.7 µM | 0.13% of 350,000 active;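 active = replicate mean at a twofold rise or more, about +100% in these data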;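 also: firefly luciferase made from a UUG start codon reports start codon fidelity; reporter light over untreated wells divided by growth signal over untreated wells; some hits fall short of that in this replicate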
eIF4H FP inh: inhibitors of RNA binding by human eIF4H | Q15056 | eIF4H fluorescence polarization binding assay | inhibition, % at 35 µM | 0.94% of 290,000 active;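 active = 50% or more with normal probe brightness, or confirmed in later tests; inconclusive = above 50% with abnormal brightness, or retests that disagree; inactive = below 50% or failed in later tests; about a fifth of its hits are not listed in these tables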;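 also: calls also rest on retests at 20 µM and on dose response follow-up; 0% = protein and probe with vehicle and 100% = probe without protein; strong numbers were not always called active; many hits fall short of the cut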
PABP FP inh: blocks human PABP binding to poly(A) RNA | P11940 | fluorescence polarization | inhibition, % at 35 µM | 1% of 290,000 active;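 active = 50% or more with normal probe brightness, or confirmed in later tests; inconclusive = above 50% with abnormal brightness, or retests that disagree; inactive = below 50% or failed in later tests; about a fifth of its hits are not listed in these tables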;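 also: calls also rest on retests at 20 µM and on dose response follow-up; controls were probe without protein and protein plus probe with vehicle; some compounds called inactive have numbers as strong as hits; many hits fall short of the cut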
Target sequence (P11940 whole entry, looked up): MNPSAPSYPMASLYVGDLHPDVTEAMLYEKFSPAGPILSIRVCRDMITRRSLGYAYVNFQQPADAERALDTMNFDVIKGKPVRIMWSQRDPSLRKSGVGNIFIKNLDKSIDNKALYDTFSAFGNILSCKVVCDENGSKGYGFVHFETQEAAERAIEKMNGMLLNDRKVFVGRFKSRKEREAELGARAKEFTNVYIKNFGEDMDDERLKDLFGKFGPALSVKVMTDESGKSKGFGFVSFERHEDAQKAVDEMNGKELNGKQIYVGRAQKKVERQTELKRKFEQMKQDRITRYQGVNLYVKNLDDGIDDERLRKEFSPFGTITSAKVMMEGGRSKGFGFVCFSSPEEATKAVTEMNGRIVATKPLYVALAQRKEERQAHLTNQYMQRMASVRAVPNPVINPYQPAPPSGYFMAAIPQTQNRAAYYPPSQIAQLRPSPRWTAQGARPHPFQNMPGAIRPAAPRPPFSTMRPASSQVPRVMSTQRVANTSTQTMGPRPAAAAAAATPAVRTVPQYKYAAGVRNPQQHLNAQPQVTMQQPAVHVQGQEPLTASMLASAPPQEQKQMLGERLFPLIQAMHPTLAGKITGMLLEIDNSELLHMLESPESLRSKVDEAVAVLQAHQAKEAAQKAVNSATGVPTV
Env fusion inh: blocks HIV Env-driven cell-cell fusion | inhibition, % at 12.3 µM | 1.1% of 360,000 active | HeLa-JRFL Env/CEM21 cell fusion, luciferase;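 active = mean replicate inhibition score of at least 50 and every replicate individually at or above 50; inconclusive = only one of the two criteria met; inactive = mean below 50 and not all replicates reaching 50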;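 also: 0% = plate neutral controls and 100% = maraviroc near 300 nM; one replicate is shown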
Rce1 inh: yeast Ras-converting enzyme inhibition; Q03530; calls only; 0.27% of 290,000 active; yeast membranes, quenched prenylated peptide cleavage fluorescence;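 active = fall in fluorescence gain of 50% or more versus controls, with final raw signal at or below 3038400; inconclusive = same 50% fall but final raw signal above 3038400; inactive = fall in fluorescence gain under 50%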;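 also: plate controls were neutral control wells for no effect and wells lacking membranes for full effect; tested at 10 µM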
CSC inhib: blocks cancer stem cells; cancer stem cell-like cells viability, luminescence; inhibition, % at 7.5 µM; 1.1% of 300,000 active;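 active = mean at 75% or more and at least half the replicates too; inconclusive = mean and replicates disagree; tested in HMLE shEcad cells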;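 also: 0% = median of negative and 100% = median of positive control wells; the first replicate is given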
MT1-MMP act inh RFP: second read-out of MT1-MMP act inh, no call of its own (marks repeat the call); RFP signal change, %; measured here: RFP expression control read;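 0 = vehicle wells; hits needed this value within 50% of zero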
Starred values were filed as active, the others as inactive; i = inactive; u = inconclusive; x = no result given; & = joins results of further samples.

mol,MT1-MMP act inh,MT1-MMP act inh RFP,UUG fidelity,eIF4H FP inh,PABP FP inh,Env fusion inh,Rce1 inh,CSC inhib
Cc1ccccc1-n1c(=S)[nH]c2nc3c(cc2c1=O)COC(C)(C)C3,-2,-3,x,4,-2,14,i,-7
COc1ccc(C(=O)N2CCCC(Nc3ccc(F)cc3)C2)c(OC)c1 (stereo unspecified),2,2,-14,-13,12,2,x,-11
CC[C@@]1(C(=O)OC)N[C@H](CN(C)S(=O)(=O)c2ccc(C(C)(C)C)cc2)[C@@H]2C(=O)N(C)C(=O)[C@@H]21,-3,2,-7,x,x,41,x,x
COc1ccc(CC(=O)OCC(=O)c2ccc(S(=O)(=O)N3CCCCC3)cc2)cc1,-4,2,-15,x,x,7,x,0
CCOC(=O)c1cccc(NC(=O)C2(S(=O)(=O)c3ccc(C)cc3)CC2)c1,1,-6,x,-1,0,x,i,x
Cc1cc(C(=O)CCl)c(C)n1-c1cccc([N+](=O)[O-])c1,2,1,-10,-5,-2,26,i,0
O=C(c1ccc(Br)c([N+](=O)[O-])c1)N1CCN(Cc2ccccc2)CC1,16,-5,-10,10,1,-2,i,-9
CC(=O)C[C@@H](O)CC(=O)[C@@H]1OC(=O)CCCCCCc2ccccc21,-7,1,-13,x,x,-72,x,x
CCCNC(=O)C(NS(=O)(=O)c1cccc2nsnc12)c1ccccc1 (stereo unspecified),0,4,-21,-1,4,-86,i,-5
Cc1ccc(-c2nc(CN3CCCCC3CCN3CCCC3=O)c(C)o2)o1 (stereo unspecified),-7,2,-8,25,-5,17,i,11

An excerpt from above in order of molar mass, lowest first:
mol,MT1-MMP act inh,MT1-MMP act inh RFP,UUG fidelity,eIF4H FP inh,PABP FP inh,Env fusion inh,Rce1 inh,CSC inhib
Cc1cc(C(=O)CCl)c(C)n1-c1cccc([N+](=O)[O-])c1,2,1,-10,-5,-2,26,i,0
CC(=O)C[C@@H](O)CC(=O)[C@@H]1OC(=O)CCCCCCc2ccccc21,-7,1,-13,x,x,-72,x,x
Cc1ccccc1-n1c(=S)[nH]c2nc3c(cc2c1=O)COC(C)(C)C3,-2,-3,x,4,-2,14,i,-7

(listing goes on)
mol,MT1-MMP act inh,MT1-MMP act inh RFP,UUG fidelity,eIF4H FP inh,PABP FP inh,Env fusion inh,Rce1 inh,CSC inhib
CC(=O)Nc1ccc(S(=O)(=O)N2CCN(C(=O)c3ncoc3-c3ccccc3)CC2)cc1,4,-8,-15,-6,9,-8,i,x
Cc1ccc(-c2nnn(C/C(N)=N/O)n2)cc1,4,3,x,0,-2,-18,i,5
c1ccc2sc(NN=C3CCCC3)nc2c1,-4,-9,x,-1,-2,-120,i,-4
COc1cc(C(=O)NNC(=O)c2cc(C)[nH]n2)cc(OC)c1OC,-3,4,x,0,-2,7,i,-8
Fc1ccc(Nc2nc(-c3ccncc3)cs2)cc1,-8,-7,x,-2,-3,22,i,7
CCCC(=O)N(c1ccccc1)C1C=CS(=O)(=O)C1 (stereo unspecified),3,0,x,3,5,-2,i,-10
OCC1=C[C@@H](O)[C@@H]2C=CO[C@@H](O[C@@H]3O[C@H](CO)[C@@H](O)[C@H](O)[C@H]3O)[C@H]12,1,3,-14,x,x,5,x,x
Cc1c(NC(=O)COC(=O)c2ccc(F)c(S(=O)(=O)N3CCOCC3)c2)c(=O)n(-c2ccccc2)n1C,1,4,x,-9,0,6,i,-2
O=C(O)C1CCCCC1C(=O)N1CCCC1 (stereo unspecified),-1,1,x,2,1,11,i,2
CN(C)CCN(C(=O)CCc1ccccc1)c1nc2c(F)cc(F)cc2s1,3,1,x,0,-1,-2,i,0
COc1ccc(N2CCN(C(=O)CNS(=O)(=O)c3ccc(C)c(C)c3)CC2)cc1,0,-1,-8,-2,41,0,i,7
C=CCOc1ccccc1CNn1c(C)n[nH]c1=S,0,6,-17,x,x,6,x,x
COCCn1cnc2c1c(=O)n(CC(=O)NC1CCCCC1)c(=O)n2Cc1ccccc1,-2,2,-5,x,x,-14,x,x
Cc1cc(SCC(=O)c2cccs2)n2nc(C)c(-c3ccccc3)c2n1,3,1,x,8,-16,-17,i,30
CC(=O)c1cc2c(s1)-c1cc(F)ccc1OC2,-2,-1,x,-4,-1,5,x,6
COc1cc(C2C(C(=O)c3ccco3)=C(O)C(=O)N2c2cc(C)on2)ccc1OCc1ccccc1 (stereo unspecified),x,x,x,-6,8,-7,i,14
C=CCc1ccccc1OCCSc1nc2ccc([N+](=O)[O-])cc2s1,-4,0,x,-16,-14,21,i,18
O=C(NCCN1CCOCC1)c1cccc(S(=O)(=O)Nc2cc(Cl)ccc2Cl)c1,2,2,-14,x,x,19,x,x
COC(=O)C1C2C=CC3(CN(c4cccc(C)c4)C(=O)C13)O2 (stereo unspecified),1,2,-7,17,7,x,i,-7
COc1ccc([N+](=O)[O-])cc1N1C(=O)c2cccc3cccc(c23)C1=O,0,1,-18,-9,0,x,i,-2
COc1cccc(C(NC(C)=O)c2nc(-c3ccoc3)cs2)c1 (stereo unspecified),-4,6,-2,x,x,-4,x,x
CC(=O)/C(C#N)=C1\NC(=O)C(Cc2ccccc2Cl)S1 (stereo unspecified),-150,-2,-6,6,-9,6,i,-2
Cc1cccc(NC(=O)CCS(=O)(=O)c2cccc3nsnc23)c1C,-2,-4,-15,-11,8,23,i,5
COc1ccc(C2N(C(=O)c3ccccc3)CCN2C(=O)c2ccccc2)cc1,1,0,2,-4,8,-18,i,3
CC(C)(C)[C@H]1C=C(C(=O)N2CCN(Cc3ccccc3)CC2)O[C@@H](OCCCCO)C1,-5,0,2,-4,1,4,i,-4
O=[N+]([O-])c1cccc(/C([O-])=C(/C(=S)Nc2ccccc2)[n+]2ccccc2)c1,2,5,x,-2,2,-17,i,-3
COC(=O)c1ccc2c(=O)n(CCCCCC(=O)N3CCN(c4ccc(F)cc4)CC3)c(=O)[nH]c2c1,-3,-16,x,-21,-5,20,i,-5
CC(C)CC(c1nnnn1C1CCCC1)N1CCC(C(N)=O)CC1 (stereo unspecified),-1,2,x,-3,-10,-14,i,-11
O=C(NCCCN1CCOCC1)c1cc(-c2cccc(O)c2)on1,0,6,-38,-6,-4,-2,i,-2
O/N=C/c1ccc(OCC(O)COc2ccc(/C=N/O)cc2)cc1,-2,-2,-4,5,1,x,i,6
COc1ccc(NS(=O)(=O)c2cccc(N3CC(O)=C(c4ccccc4)C3=N)c2)cc1,0,4,x,-5,-9,0,i,5
CSc1ccc(CNC(=O)C(C)n2nc(C)c3c(C)n(-c4ccccc4)nc3c2=O)cc1 (stereo unspecified),2,-5,9,-1,14,0,i,-2
CCOc1ccc(S(=O)(=O)N2CCN(C(=O)c3oc4ccccc4c3C)CC2)cc1,2,-5,17,x,x,-1,x,x
CCN(CC)CCCn1c2c(c(SCC(=O)Nc3cccc(C(C)=O)c3)nc1=O)CCC2,0,1,-17,x,x,-9,i,-10
O=C(O)c1ccc2c(c1)C(=O)N(c1ccc(/C=C/C(=O)c3ccccc3)cc1)C2=O,1,-3,x,-2,5,-9,i,16
COc1ccc(OCCSc2ccc(S(=O)(=O)N3CCCC3)cn2)cc1,1,-18,-12,x,x,x,x,-7
O=C(Nc1ccnn1C1CCN(Cc2cccc(O)c2)CC1)C1CCCC1,-1,-1,-2,-5,0,3,i,-5
CC(=O)Nc1ccccc1NC(=O)CN(C)S(=O)(=O)c1ccc(C)cc1,-7,-1,-17,-6,-13,-13,i,-5
CC(C)C(C(=O)OCC(=O)c1cccc([N+](=O)[O-])c1)N1C(=O)[C@@H]2[C@H]3CC[C@H](C3)[C@@H]2C1=O (stereo partly specified),-1,0,x,1,4,x,i,x
COc1cccc(CNc2nc3cc(-c4cccc(OC)c4)sc3c(=O)n2C)c1,2,-15,-12,x,x,5,x,x
O=C(Nc1cccc(C(F)(F)F)c1)C1CCCN1S(=O)(=O)c1cccc2cccnc12 (stereo unspecified),-5,-23,x,2,-9,x,i,1
CC(C)Cc1nnc(NC(=O)CCc2c[nH]c3ccccc23)s1,11,-2,-11,-6,4,15,i,37
CCOc1cc(/C=N/N2C(=O)NC3(CCCCC3)C2=O)cc(Br)c1O,-4,0,x,5,1,-4,i,-5
COc1ccc(Cl)cc1NC(=O)CCN1CCN(c2ccccc2C)CC1,-3,-9,-17,-8,-2,u,i,0
COc1cc(CC(=O)OCC(=O)Nc2ccc(N(C)C)cc2)cc(OC)c1OC,4,2,-3,x,x,x,x,-2
Cc1ccc(N2CCCC2=O)cc1S(=O)(=O)N1CCOCC1,0,3,-13,-4,3,6,i,-6
CC1(C)CC(N2CCN(c3ccccc3)CC2)=CC(=[N+]2CCCC2)C1,-5,-24,-7,2,38,81*,i,59
O=C(Nc1ccccc1C(=O)OCC(=O)c1c[nH]c2ccccc12)c1ccco1,0,-5,x,-9,14,x,i,-20
CS(=O)(=O)Cc1nc2ccccc2oc1=O,-2,-2,-4,-3,5,x,i,4
COc1cccc(CN2CCN(C(=O)c3ccc(-c4ccccc4)cc3)CC2)c1,0,-1,1,-1,-1,20,i,-3

Later entries
mol,MT1-MMP act inh,MT1-MMP act inh RFP,UUG fidelity,eIF4H FP inh,PABP FP inh,Env fusion inh,Rce1 inh,CSC inhib
Cc1cc(C)nc(SCc2nnc(SCC(=O)N3CCCc4ccccc43)n2C)n1,-1,2,0,-11,-1,x,i,x
COc1ccc(N2C(=O)CC(Sc3nnc(-c4ccccc4F)n3C)C2=O)cc1 (stereo unspecified),-2,0,x,-8,2,7,i,-10
CN(C)CCNc1nc(-c2ccccc2F)c2sccc2n1,1,3,-5,x,x,10,x,x
CSc1ccc(CN(C)CC(=O)NCCc2ccccc2)cc1,4,1,-17,-2,2,5,i,8
COC(=O)C1(C)NC(c2ccccc2OC)C2C(=O)N(c3ccccc3)C(=O)C21 (stereo unspecified),-5,0,-18,10,0,-16,i,-12
CCOc1ccc(CN(C)C(=O)c2cccc(S(=O)(=O)N3CCCC3)c2)cc1OC,-2,-3,-3,x,x,x,x,2
CCCCn1c(C)csc1=Nc1cccnc1,0,3,x,1,13,-1,i,-9
O=C(CCC1CCN(C(=O)c2cc(C(F)(F)F)ccc2Cl)CC1)NC1CC1,-1,1,-17,-6,-2,-11,i,1
O=C(Nc1cc(S(=O)(=O)N2CCCCC2)ccc1N1CCOCC1)c1ccc(C(F)(F)F)cc1,1,-2,-15,x,x,5,x,7
Cc1ccc(C2C(C#N)=C(N)Oc3n[nH]c(-c4cccs4)c32)cc1 (stereo unspecified),2,-3,-18,-1,2,-42,i,-17
COc1ccc2oc(=O)cc(CN3CCOCC3)c2c1,-2,-3,-9,10,11,-49,i,-12
CC(=O)Oc1ccc(C(=O)[C@H]2[C@H]3C(=O)N(c4ccc5ccccc5c4)C(=O)[C@H]3[C@@H]3C=CC=NN32)cc1,-12,11,-11,19,-2,x,i,6
O=C1C(NS(=O)(=O)c2ccc(Br)cc2)=C(N2CCCCC2)C(=O)c2ccccc21,7,3,-21,-6,14,23,i,8
O=C1CCCN2N=C(SCC(=O)Nc3nc4ccccc4s3)SC2=N1,3,-12,-11,5,-8,-25,x,5
O=C(COc1ccc(S(=O)(=O)N2CCOCC2)cc1)Nc1ccccc1Cl,-2,-4,-11,6,8,17,x,-13
COC(=O)C1=C(C)NC(C)=C(C(=O)OC)C1C(=O)OC(C)C(=O)c1ccccc1 (stereo unspecified),1&3,4&1,-2,3,7,8&13,i,-17
